# VCAM-1 imaging: inhibitors of TNFa-induced VCAM-1 surface display, imaging, high-content imaging, pooled HUVEC, TNFa stimulus (AID 456); inhibition, % at 5 µM; hits with a dose series show IC50 in µM; hit rate 0.2% among 10,000; HUVEC TNFa-induced VCAM-1 surface expression, immunofluorescence imaging; numbers were filed only for top-ranked candidate wells;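 active = top tenth filtered wells with inhibition above zero that passed visual or statistical confirmation; inactive = the rest, including hits rejected on review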;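 also: 0% = stimulated vehicle wells and 100% = unstimulated cells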
# VCAM-1 down: inhibitors of TNFa-induced VCAM-1 surface display, cell-based, plate reader, pooled HUVEC, TNFa stimulus (AID 454). HUVEC TNFa-induced VCAM-1 surface immunofluorescence, plate reader; numbers were filed only for top-ranked candidate wells. hit rate 0.2% among 10,000. inhibition, % at 5 µM;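 active = compound among top-ranked inhibitors of TNF-induced VCAM-1 adhesion protein staining, with the hit upheld by image or statistical review; inactive = the rest, including hits rejected on review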;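 also: 0% = TNFa with vehicle and 100% = cells without TNFa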
# VCAM-1 augmentation: enhancers of VCAM-1 display on endothelial cells, imaging, high-content imaging, pooled HUVEC, TNFa stimulus (AID 457); Pooled HUVEC, TNFa-induced VCAM-1 immunofluorescence imaging; hits of this screen are not shown here; calls only; hit rate 0.2% among 10,000;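 active = a top-ranked rise in VCAM-1 staining upheld on image or statistical review; inactive = the rest, including candidates rejected on review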;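 also: compounds tested at 5 µM in the well; cells exposed to compound for 24 hours before fixing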
# FPRL1 ligand: human FPRL1 ligands by binding competition, primary screen, cell-based, FPR counter-screen, flow cytometry; N-formyl peptide receptor 2 (Homo sapiens), P25090; FPRL1-expressing cells, fluorescent ligand binding inhibition; inhibition, %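 (tested at 6.7 µM)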; hit rate 0.3% among 24,000; AID 441, 2006;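 also: 0% = buffer alone and 100% = receptor blocker peptide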
# Target sequence (P25090 whole entry, looked up): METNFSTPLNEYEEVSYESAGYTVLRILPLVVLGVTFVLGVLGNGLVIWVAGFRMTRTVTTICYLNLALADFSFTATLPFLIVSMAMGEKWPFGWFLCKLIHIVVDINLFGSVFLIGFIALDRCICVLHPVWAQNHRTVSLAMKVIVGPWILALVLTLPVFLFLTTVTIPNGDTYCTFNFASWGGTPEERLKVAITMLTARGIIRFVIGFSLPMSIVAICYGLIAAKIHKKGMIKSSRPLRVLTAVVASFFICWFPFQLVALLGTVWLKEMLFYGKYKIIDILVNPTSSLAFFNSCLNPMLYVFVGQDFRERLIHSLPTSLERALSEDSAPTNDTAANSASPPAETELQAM
# FPR binder: human FPR ligands by binding competition, primary screen, cell-based, FPRL1 counter-screen, flow cytometry | fMet-Leu-Phe receptor (Homo sapiens), P21462 | FPR-expressing cells, fluorescent ligand binding | inhibition, %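 (tested at 6.7 µM)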 | AID 440, 2006 | hit rate 0.74% among 24,000;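 also: 0% = buffer wells and 100% = receptor blocker peptide wells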
# Target sequence (P21462 whole entry, looked up): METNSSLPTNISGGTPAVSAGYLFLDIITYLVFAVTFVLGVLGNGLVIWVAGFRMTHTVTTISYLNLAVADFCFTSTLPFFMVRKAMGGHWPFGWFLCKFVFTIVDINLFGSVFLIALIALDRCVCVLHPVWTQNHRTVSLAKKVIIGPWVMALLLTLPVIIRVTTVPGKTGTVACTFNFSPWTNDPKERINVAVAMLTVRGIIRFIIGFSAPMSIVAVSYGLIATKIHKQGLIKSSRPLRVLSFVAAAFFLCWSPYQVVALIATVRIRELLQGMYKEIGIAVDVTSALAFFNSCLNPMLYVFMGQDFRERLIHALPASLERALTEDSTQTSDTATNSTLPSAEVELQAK
# An asterisk follows results filed as active; i = inactive; / = not tested or not shown.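 The calls were made as follows, unless noted: active = mean above 30%; inconclusive = self-fluorescent; inactive = the rest.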
SMILES,VCAM-1 imaging,VCAM-1 down,VCAM-1 augmentation,FPRL1 ligand,FPR binder
CCCCC(=O)O[C@]1(C(=O)CO)CC[C@H]2[C@@H]3CCC4=CC(=O)CC[C@]4(C)[C@H]3[C@@H](O)C[C@@]21C,i,i,i,-2.5,-0.3
COc1ccc2cc3cc(C(=O)Nc4ccc5c(c4)OCO5)oc3nc2c1,/,/,/,-2.2,0.8
O=C(Cn1cnc2c(oc3ccccc32)c1=O)N1CCCc2ccccc21,/,/,/,2.5,1.0
COc1cccc(-c2cc(C(=O)N3CC4(C)CC3CC(C)(C)C4)no2)c1 (configuration not stated),/,/,/,-2.1,-3.5
CCC(C)N1C(=O)CCC1C(=O)NCc1ccc2c(c1)OCO2 (configuration not stated),/,/,/,-1.6,-3.6
CCOc1ccc(C(=O)NCCn2cc(SCC(=O)Nc3cc(C)on3)c3ccccc32)cc1,/,/,/,-3.5,3.6
CC1CN(CC(O)COc2ccccc2C(C)(C)C)CC(C)O1 (configuration not stated),i,i,i,0.2,3.0
COc1ccc2[nH]c(C)c(CN3CCCC(C)C3)c(=O)c2c1 (configuration not stated),/,/,/,-9.3,4.5
NC(=O)c1nn(-c2ccccc2)nc1NC(=O)CN1CCCCC1,/,/,/,1.3,5.6
COc1ccc(Cl)cc1N1C(=O)C2CCCN2C1c1sccc1C (configuration not stated),/,/,/,6.2,2.4
CCc1c(C)n([O-])c2c([n+]1=O)CCC2,i,i,i,8.2,-4.2
CCn1c(SCC(=O)Nc2ccc3c(c2)OCO3)nc2c(c1=O)SC(C)C2 (configuration not stated),i,i,i,1.4,1.2
Clc1ccc(Cn2c(CN3CCCC3)nc3ccccc32)cc1,i,i,i,8.5,3.6
COc1ccc(C(O)C(CN2CCOCC2)c2ccccc2)cc1F (configuration not stated),i,i,i,-3.3,-7.6
Cn1c(=O)c(=O)n(C)c2cc(S(=O)(=O)Nc3ccc4c(c3)OCCO4)ccc21,i,i,i,-2.5,-5.1
COC(=O)c1sccc1NC(=O)c1ccco1,i,i,i,-2.5,-2.3
COCCNC(=O)C(C)OC(=O)c1nsc(Cl)c1Cl (configuration not stated),i,i,i,1.7,-0.9
Cc1nn(C)c(C)c1S(=O)(=O)N(CC(=O)Nc1ccc2c(c1)OCO2)c1ccc(C(C)C)cc1,/,/,/,-6.5,0.4
O=C(C1CCC(Cn2c(=O)[nH]c3ccccc3c2=O)CC1)N1CCN(c2ccccc2)CC1 (configuration not stated),/,/,/,-0.5,-1.3
COCCn1cc(C(=O)NCc2cccs2)c2c3ccccc3n(C)c2c1=O,/,/,/,13.9,1.8
CCOC(=O)C1CCCN(C(=O)CN2CCN(Cc3ccc(Cl)cc3)C2=O)C1 (configuration not stated),/,/,/,1.3,3.6
CCOC(=O)N1CCN(C(=O)C2CC(=O)N(c3ccc(OC)cc3)C2c2ccc(OC)cc2)CC1 (configuration not stated),/,/,/,12.4,-0.6
Cc1cc(Nc2ccc(Br)cc2F)n2ncnc2n1,/,/,/,-2.7,-4.7
O=C(Nc1ccc(Cl)c(C(F)(F)F)c1)C1CCCN(S(=O)(=O)c2cnc[nH]2)C1 (configuration not stated),/,/,/,-4.4,-3.3
CCc1nnc(NC(=O)c2cccc(C(=O)Nc3nnc(CC)s3)n2)s1,i,i,i,2.6,0.1
N#Cc1c(N2CCCC2)nc(N)c2c(N)nc(N3CCCC3)cc12,i,i,i,0.0,-1.7
Cc1noc(C)c1S(=O)(=O)N(CC(=O)NCc1ccc(Cl)cc1)c1ccc2c(c1)OCO2,/,/,/,-4.7,-2.1
Cc1ccc(CC23CN4CCN(CC(C4)C2O)C3)c(C)c1 (configuration not stated),i,i,i,0.9,3.4
CCNC(=O)c1cc2c(=O)n3cccc(C)c3nc2n1C,/,/,/,-4.0,-2.0
COc1ccccc1CNC(=O)c1nnc(Cc2ccc(Cl)cc2)o1,/,/,/,-2.1,-6.1
COc1cc(CNc2ccc(N3CCOCC3)c(C(=O)O)c2)ccc1OCC(N)=O,i,i,i,-2.8,-5.3
CCOC(=O)C1CCN(C(=O)CSc2n[nH]c(=O)[nH]c2=O)CC1,i,i,i,-1.2,-3.6
COc1cc(N=c2ssnc2Cl)cc(OC)c1,i,i,i,1.8,-4.9
CC(C)c1ccc(NC(=O)C2CC(=O)N(C(C)C)C2)cc1 (configuration not stated),i,i,i,0.6,2.7
O=C(Cn1cc2c(n1)CCCC2)NCc1cccs1,/,/,/,0.8,-0.1
O=C(NC1CCc2ccccc21)C1CCN(S(=O)(=O)c2ccc(-n3cnnn3)cc2)CC1 (configuration not stated),i,i,i,-0.3,3.7
CCCC(=O)Nc1ccc(OCC(=O)OC)cc1,i,i,i,4.6,5.0
O=c1c2cnn(-c3ccc(F)cc3)c2ncn1Cc1cccnc1,/,/,/,-11.9,-0.5
COc1ccc(S(=O)(=O)NCCC(=O)NC(C)c2ccccc2)cc1 (configuration not stated),/,/,/,3.8,1.9
Cc1ccc(CNC(=O)C2CCC(=O)N2C2CCCCC2)cc1 (configuration not stated),/,/,/,-4.8,-2.8
CN(C)c1ccc(C(=O)OCC(=O)NC2CCCCC2)cc1,i,i,i,0.6,-3.6
O=C(CN1C(=O)COc2ccccc21)N(Cc1cccnc1)Cc1ccccc1F,i,i,i,-1.2,-3.1
COc1cc(C2=NOC(C(=O)NCc3ccc(F)cc3)C2)cc(OC)c1OC (configuration not stated),i,i,i,3.1,-3.2
CC(C)NC(=O)c1ccc(CS(=O)(=O)c2ccc(Br)cc2)o1,/,/,/,-5.2,-0.4
COc1cccc(C2C(C(=O)c3ccco3)=C(O)C(=O)N2CCCN2CCOCC2)c1OC (configuration not stated),/,/,/,-0.5,-5.7
CC(=O)n1nc2nc(C)cc(C)c2c1N,/,/,/,22.4,0.8
CCOc1ccc(NC(=O)c2cccnc2C(=O)O)cc1,/,/,/,0.0,-1.9
Cc1ccc(-c2nc3ncccn3c2Nc2ccc3c(c2)OCCO3)o1,/,/,/,-4.4,0.1
O=C1c2cccnc2C(=O)N1C1CCCCC1,/,/,/,-3.1,7.0
O=C(CCN1CCc2ccccc2C1)Nc1ccc2c(c1)OCO2,i,i,i,4.0,6.4

# Nothing new here: entries from further up.
SMILES,VCAM-1 imaging,VCAM-1 down,VCAM-1 augmentation,FPRL1 ligand,FPR binder
CCCC(=O)Nc1ccc(OCC(=O)OC)cc1,i,i,i,4.6,5.0
O=c1c2cnn(-c3ccc(F)cc3)c2ncn1Cc1cccnc1,/,/,/,-11.9,-0.5
COc1ccc(S(=O)(=O)NCCC(=O)NC(C)c2ccccc2)cc1 (configuration not stated),/,/,/,3.8,1.9
Cc1ccc(CNC(=O)C2CCC(=O)N2C2CCCCC2)cc1 (configuration not stated),/,/,/,-4.8,-2.8
CN(C)c1ccc(C(=O)OCC(=O)NC2CCCCC2)cc1,i,i,i,0.6,-3.6
O=C(CN1C(=O)COc2ccccc21)N(Cc1cccnc1)Cc1ccccc1F,i,i,i,-1.2,-3.1
COc1cc(C2=NOC(C(=O)NCc3ccc(F)cc3)C2)cc(OC)c1OC (configuration not stated),i,i,i,3.1,-3.2
CC(C)NC(=O)c1ccc(CS(=O)(=O)c2ccc(Br)cc2)o1,/,/,/,-5.2,-0.4
COc1cccc(C2C(C(=O)c3ccco3)=C(O)C(=O)N2CCCN2CCOCC2)c1OC (configuration not stated),/,/,/,-0.5,-5.7
CC(=O)n1nc2nc(C)cc(C)c2c1N,/,/,/,22.4,0.8
CCOc1ccc(NC(=O)c2cccnc2C(=O)O)cc1,/,/,/,0.0,-1.9
Cc1ccc(-c2nc3ncccn3c2Nc2ccc3c(c2)OCCO3)o1,/,/,/,-4.4,0.1

# Continued.
SMILES,VCAM-1 imaging,VCAM-1 down,VCAM-1 augmentation,FPRL1 ligand,FPR binder
CC1=C(C(=O)OC(C)C)C(c2ccccn2)n2ncnc2N1 (configuration not stated),i,i,i,5.5,-1.5
CCOC(=O)Nc1ccc(C)cc1Br,/,/,/,4.3,0.8
CCOC(=O)Cc1csc(NC(=O)CSc2nnc(C(C)C)n2CC)n1,i,i,i,11.6,9.5
COc1cc2[nH]c(=O)n(CCC(=O)N3CCN(c4cc(Cl)ccc4C)CC3)c(=O)c2cc1OC,/,/,/,-4.2,-1.2
O=C(CCNS(=O)(=O)c1cccc2nsnc12)NC1CCCc2ccccc21 (configuration not stated),/,/,/,0.8,3.5
COC(=O)c1cc(-c2ccc(Br)cc2)n[nH]1,/,/,/,-4.0,-14.1
Cc1ccc2c(c1)C(O)(CC(=O)c1ccc3c(c1)OCO3)C(=O)N2 (configuration not stated),i,i,i,1.2,-10.8
O=C(c1ccc(CS(=O)(=O)c2ccc(Br)cc2)o1)N1CCCC1,/,/,/,2.2,0.5
CCCS(=O)(=O)N1CCC(C(=O)NC2CCCCC2C)CC1 (configuration not stated),/,/,/,-1.4,0.8
O=C(CCC(=O)N1CCN(S(=O)(=O)c2ccccc2)CC1)c1cccs1,i,i,i,2.8,1.2
COc1ccccc1N1CCN(C(=O)CCCn2c(=O)[nH]c3ccsc3c2=O)CC1,/,/,/,-1.3,3.1
O=C(NC1CCCCC1)c1cccnc1C(=O)O,/,/,/,9.3,-0.3
CCOC(=O)C1=C(C)Nc2nc(SC)nn2C1c1ccc(C(=O)OC)cc1 (configuration not stated),/,/,/,-2.7,3.5
N#Cc1cc2c(nc1SCC(=O)N1CCCCC1)CCCC2,i,i,i,4.2,-5.0
COC(=O)CSc1nnc(-c2ccc(OC)cc2OC)o1,i,i,i,-1.1,-15.3
CC1Cc2nc(SCC(=O)Nc3ccc4c(c3)OCCO4)n(C)c(=O)c2S1 (configuration not stated),/,/,/,-1.1,2.6
O=C(NC1CCCCC1)C1CC(O)CN1C(=O)OCc1ccccc1 (configuration not stated),i,i,i,-0.3,-12.8
O=C(NC(c1ccccc1)c1ccccc1)C1CCCN(S(=O)(=O)c2cnc[nH]2)C1 (configuration not stated),/,/,/,-4.6,-4.3
Cc1nc2nc[nH]n2c(=O)c1NC(=O)CC12CC3CC(CC(C3)C1)C2,/,/,/,-1.8,3.2
Cc1cc(C)c2c(=O)n(CC(=O)NCCCN3CCOCC3)sc2n1,i,i,i,1.5,-6.2
Cc1ccccc1S(=O)(=O)Cc1ccc(C(=O)N2CCN(C3CCCCC3)CC2)o1,/,/,/,3.6,-6.6
CCn1cc(C(=O)NCCN(C)CCc2ccccc2)c(=O)c2cc(S(=O)(=O)N(C)C)ccc21,i,i,i,6.3,0.0
COc1ccc(NC(=O)Nc2nnc(N3CCCCC3C)s2)cc1OC (configuration not stated),/,/,/,3.0,4.8
COCc1cc(C)nc2sc3c(=O)n(Cc4ccco4)nnc3c12,/,/,/,-3.3,1.6
O=C(NCc1cccnc1)c1ccc(CS(=O)(=O)c2ccc(Br)cc2)o1,/,/,/,-8.4,-1.8
Cn1c(=O)cc(OCCCC(=O)NC2CCCC2)c2ccccc21,/,/,/,-0.9,-2.8
COc1ccc(-c2nnc(NC(=O)c3ccc(S(=O)(=O)N4CCCc5ccccc54)cc3)o2)cc1,/,/,/,-6.5,-5.8
COc1ccc(Cl)c(NC(=O)NCCN2CCN(c3ccccc3)CC2)c1,i,i,i,0.3,6.6
CCOC(=O)N1CCN(C(=O)CSCc2nc(-c3ccccc3C)oc2C)CC1,/,/,/,-4.4,2.8
CC1CCCN(C(C(=O)Nc2ccc3c(c2)OCCO3)c2ccccc2)C1 (configuration not stated),/,/,/,-0.9,5.6
COCCN1C(=O)c2ccccc2C(C(=O)NCCCN2CCCC2=O)C1c1c[nH]c2ccccc12 (configuration not stated),/,/,/,12.6,-1.9
Cc1ccc(NC(=O)C2CCN(S(=O)(=O)c3c(C)n[nH]c3C)CC2)nc1,/,/,/,5.6,-3.7
CCOc1ccc(NC(=O)c2ccccc2OC)cc1,/,/,/,-3.6,0.6
Cc1ccc(-c2noc(CCC(=O)NCCN3CCc4ccccc4C3)n2)cc1,/,/,/,-2.3,-5.3
Cn1c(=O)c2cc(S(=O)(=O)NCCC(=O)NCC3CCCO3)ccc2n(C)c1=O (configuration not stated),/,/,/,6.0,4.7
CCN1CCN(C(c2cccs2)C(C)NC(=O)c2c(F)cccc2F)CC1 (configuration not stated),/,/,/,-6.0,-5.0
Cc1ccc(-c2nn[nH]n2)cc1,i,i,i,-0.2,-13.1

# Screening results as filed in PubChem BioAssay.

# The list is partial, so the mix of outcomes need not match the whole.
